# Screens: PubChem, several laboratories
# Mtb hypoxia rep: inhibitors of hypoxia-regulated fluorescent reporter in Mycobacterium tuberculosis; M. tuberculosis hypoxia-regulated fluorescent reporter, fluorescence; fluorescence inhibition, % (concentration not given with the values); 300,000 tested, 0.1% active; AID 1159583;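 active means 35 to 45% if threefold the growth effect, above 45% if 1.5-fold the growth effect; inactive means the rest, general growth blockers included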;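 further: wells of about 50 µL received 100 nL stock; 0% = vehicle wells and 100% = reference inhibitor wells; whole bacteria with a GFP reporter of the hypoxia response; strong numbers were not always called active; many hits fall short of the cut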
# Autofluor counter: flagged as autofluorescent in microsphere protease counterscreen; 360,000 tested, 3.1% active; compound autofluorescence counterscreen, microsphere flow cytometry; hits give high values; fluorescence intensity (concentration not given with the values); AID 624483;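 active means at least 3 SD above the mean of all compounds, about 16000 in these data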;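 further: 100 nL of 1 mM stock went into each well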
# ugtP null kill: compounds lethal to S. aureus RN4220 ugtP deletion mutant. 330,000 tested, 0.54% active. OD600 growth, 16 h; some inactives read as strong as hits. growth inhibition, % (concentration not given with the values);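 active means z-score under -3 and OD600 up to 0.15 on both plates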;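 further: plate controls were untreated wells for no effect and antibiotic for full effect; wells of about 80 µL received 100 nL stock; the first replicate is given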
# BJeLR lethal: kills HRASV12-expressing BJeLR cells; 300,000 tested, 0.17% active; BJeLR (HRASV12) viability, CellTiter-Glo ATP luminescence, 48 h; reference of the scale not given here; inhibition, % (test concentration not listed);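 active means replicate mean above 50%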;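 further: 50 nL library stock added to about 25 µL; numbers are from one replicate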
# Sa RN4220 lethal: kills Staphylococcus aureus RN4220. S. aureus RN4220 growth, OD600, 16 h. inhibition, % (concentration not given with the values). 330,000 tested, 0.33% active;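 active means z-score of -3 or lower and OD600 up to 0.18 on both plates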;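 further: plate controls were untreated cells for no effect and reference antibiotic for full effect; stock transfer was 100 nL into about 80 µL; one replicate is shown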
# PrP 5UTR inh: inhibition of PrP 5' UTR reporter expression; 340,000 tested, 0.35% active; cell-based PrP 5' UTR mRNA reporter, plate reader; inhibition, % (no concentration beside the values);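 active means every replicate at 50% or more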;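 further: 0 = median of the neutral control wells; tested in H4 reporter cells; numbers are from one replicate; inactives centre near -14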
# Mtb hypoxia rep growth: further read-out of Mtb hypoxia rep, marked with its call; growth inhibition, %; measured here: M. tuberculosis growth (absorbance);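 0% = vehicle and 100% = reference antibiotic; read after six days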
# An asterisk follows results filed as active; x = no result given.
SMILES,Mtb hypoxia rep,Mtb hypoxia rep growth,Autofluor counter,ugtP null kill,BJeLR lethal,Sa RN4220 lethal,PrP 5UTR inh
COc1ccc(/C=N/Nc2ncnc3c2[nH]c2ccc(C)cc23)c(OC)c1OC,x,x,4129,x,-3,x,-1
C=CCn1c(SCC(=O)Nc2ccc(F)cc2)nnc1-c1cnccn1,4,-1,4196,5,3,6.4,5
Cc1cc(-n2c(=O)c(C#N)cc3c(=O)n4ccccc4nc32)no1,3,-2,8488,0,7,6.3,-27
COc1ccc(C(=O)/C=C/c2ccc(O)cc2)c(O)c1C/C=C(\C)CCC=C(C)C,x,x,4001,10,x,26,-13
CC(=NNc1cccc(C(F)(F)F)c1)c1ccc(O)cc1,-1,15,x,1,x,0.7,x
CCN(CC)C(=O)CSc1ncnc2c1cnn2-c1ccccc1,-7,1,3149,1,-2,2.0,-45
CCOC(=O)c1ccc(NC(=S)NCCCN2CCOCC2)cc1,15,15,4712,7,3,-1.7,-41
COc1ccccc1N(C)S(=O)(=O)c1ccc(C(=O)Nc2ccc(N3CCOCC3)cc2)cc1,6,4,3316,7,4,4.4,3
Cc1cc(OC(=O)c2ccc3ccccc3c2)c([N+](=O)[O-])c(=O)[nH]1,x,x,2772,x,1,x,-12
O=C(Nc1nccs1)c1ccc2nccnc2c1,6,4,6142,-12,-2,26,-44
O=C(CN1C(=O)NC2(CCOc3ccccc32)C1=O)Nc1ccc(Br)cc1F (stereo unspecified),-6,2,x,-5,x,2.0,-36
O=C1NC(=O)C(CCc2ccncc2)(Cc2ccc([N+](=O)[O-])cc2)C(=O)N1,-1,2,2530,3,-11,3.0,10
O=c1[nH]n2c(=O)c3c([nH]c2c1N=Nc1cccc(Cl)c1)CCCC3,2,-5,7634,-22,4,-0.9,-19
CN(C)S(=O)(=O)c1cc(NC(=O)Cn2ccsc2=N)ccc1Cl,22,-1,6805,4,10,-0.7,-17
O=C(Cn1cc(C(F)(F)F)ccc1=O)NN=Cc1ccc(O)cc1,5,13,x,3,x,2.0,x
Cc1ccc(N/N=C(/Sc2nnnn2-c2ccccc2)C(=O)c2ccccc2)cc1,x,x,8010,x,5,x,-6
O=C(C1CC1)N1CCc2[nH]c3ccccc3c2C1,5,4,4663,3,-2,2.5,-30
COc1ccc(Cn2cccc(NC(=O)Nc3ccc(F)cc3)c2=O)cc1,1,3,4287,6,-5,-7.9,0
CC(C)(C)OC(=O)NC(COCc1ccccc1)C(=O)NC(CO)C(O)C1CC1C(=O)NC1CC1 (stereo unspecified),8,6,x,4,x,1.9,x
O=C(COC(=O)C1=COCCO1)Nc1ccc(Cl)cn1,3,-2,3590,3,x,4.7,-20
CC(=NO)c1c(O)c(C)c(-c2ccccc2)n(-c2ccccc2)c1=O,-3,9,x,-3,x,0.2,x
CCOc1ccccc1C(=O)Nc1cc(Cl)ccc1O,1,18,3764,8,2,11,-23
COCCNC(=O)/C(C#N)=C/c1cc(Br)c(O)c(OC)c1,x,x,4568,x,-1,x,-25
O=C(c1ccc2c(=O)n(Cc3ccco3)c(=S)[nH]c2c1)N1CCN(c2ccccc2)CC1,3,-1,3776,10,x,-12,-62
CCOc1cc(C=NNc2nc(=O)[nH]nc2C)ccc1O,2,9,x,14,x,9.5,x

# Shown tab-delimited: entries from further up.
SMILES	Mtb hypoxia rep	Mtb hypoxia rep growth	Autofluor counter	ugtP null kill	BJeLR lethal	Sa RN4220 lethal	PrP 5UTR inh
COc1ccccc1N(C)S(=O)(=O)c1ccc(C(=O)Nc2ccc(N3CCOCC3)cc2)cc1	6	4	3316	7	4	4.4	3
C=CCn1c(SCC(=O)Nc2ccc(F)cc2)nnc1-c1cnccn1	4	-1	4196	5	3	6.4	5
COc1ccc(C(=O)/C=C/c2ccc(O)cc2)c(O)c1C/C=C(\C)CCC=C(C)C	x	x	4001	10	x	26	-13

# Returning to the listing with the 2 entries that preceded the break.
SMILES,Mtb hypoxia rep,Mtb hypoxia rep growth,Autofluor counter,ugtP null kill,BJeLR lethal,Sa RN4220 lethal,PrP 5UTR inh
O=C(c1ccc2c(=O)n(Cc3ccco3)c(=S)[nH]c2c1)N1CCN(c2ccccc2)CC1,3,-1,3776,10,x,-12,-62
CCOc1cc(C=NNc2nc(=O)[nH]nc2C)ccc1O,2,9,x,14,x,9.5,x
O=C(CC(Cc1ccccc1)C(=O)O)Nc1ccc(Cl)c(Cl)c1 (stereo unspecified),-13,-9,2866,-6,-10,2.1,-3
Cc1ccc2nc(C)c(CN3CCN(c4ccc([N+](=O)[O-])cc4Cl)CC3)n2c1,x,x,5318,x,9,x,-16
CN1CCN(C(=O)C2CCC(C)(C(=O)O)C2(C)C)CC1 (stereo unspecified),1,-5,3165,13,-2,6.0,14
Cc1nn(-c2ccccc2)c(N2CCCC2)c1/C=N/NC(=O)c1ccccc1O,x,x,2502,x,1,x,-8
CC(C)c1ccc(C2CC(c3ccc(Br)cc3)=NN2C(N)=S)cc1 (stereo unspecified),0,-1,1968,-14,3,-12,-75
O=[N+]([O-])c1ccc(N2CCN(c3ccccc3F)CC2)c(S(=O)(=O)N2CCOCC2)c1,8,2,2328,0,10,7.4,-9
CC12CCC(C(=O)Nc3ccccc3Cl)([C@H](Br)C1=O)C2(C)C (stereo partly specified),8,2,5966,-1,4,6.8,-21
O=C1CC(N2CCN(c3ccccc3)CC2)C(=O)N1c1ccc(Cl)cc1 (stereo unspecified),5,-5,x,2,16,2.0,-15
CCOc1cc(C=NNC(=O)c2ccccc2OCc2ccc(F)cc2)ccc1O,5,1,x,9,x,12,x
Cc1cccc(/C=N/NC(=O)c2ccc(NC(=O)c3cccc(Cl)c3)cc2)n1,x,x,3226,x,-17,x,-15
CCc1ccccc1NC(=O)COC(=O)c1cccs1,15,8,3995,5,-6,4.5,-18
OCCC1CN(CCCn2cccn2)CCN1C1CCCCC1 (stereo unspecified),9,16,4205,16,7,3.2,-10
N#C/C(=C\c1cccc([N+](=O)[O-])c1)C(=O)NCC1CCCO1 (stereo unspecified),4,1,5005,2,-3,3.5,-32
Cc1ccccc1NC(=O)c1nn(C)c(C(=O)Nc2ccccc2C)c1[N+](=O)[O-],14,1,x,0,4,4.2,19
COc1cc2c(cc1OC)C(C)N(C(=O)[C@@H](NC(=O)c1ccccc1)C(C)C)CC2 (stereo partly specified),-13,-3,3934,4,-8,0.5,-4
COc1ccc(-n2ncc3c2CC(C)(C)CC3NC(=O)CN2CCOC2=O)cc1 (stereo unspecified),-9,-2,5773,-4,2,-2.2,-7
O=C(CSc1ncn(-c2ccccc2)n1)Nc1nc2c(s1)CCCC2,12,4,10119,-15,3,8.2,-17
Cc1cc(C(=O)CCl)c(C)n1CC1COc2ccccc2O1 (stereo unspecified),19,21,5385,91*,4,94*,-14
CCCCC(=O)Nc1cccc(C(=O)NN=Cc2ccc(OC)cc2OC)c1,9,0,x,12,x,2.8,x
COCCNC(=O)c1ccc2c(Cl)c3c(nc2c1)CCC3,8,1,3172,1,-5,2.8,-35
CN(C)c1ccc(/C=C/c2ccncc2)cc1,2,5,5117,3,x,0.6,-107
CS(=O)(=O)N1c2ccccc2[C@@]2(Br)CC3C(=O)NC(Cc4ccccc4)C(=O)N3C12 (stereo partly specified),-3,8,x,-17,x,-2.6,x
C/C(=N\O)c1sc(-c2ccccc2)nc1C,x,x,2605,x,8,x,-112
O=S(=O)(c1cccs1)N1CCN(CCc2ccccc2)CC1,13,-36,4688,11,-24,-0.3,-12
COc1ccc(N2C(=O)CC(Sc3nc4ccccc4s3)C2=O)cc1 (stereo unspecified),6,-2,4550,9,-6,11,-17

# Reprinted at random: 6 compounds from above, in no set order.
SMILES,Mtb hypoxia rep,Mtb hypoxia rep growth,Autofluor counter,ugtP null kill,BJeLR lethal,Sa RN4220 lethal,PrP 5UTR inh
OCCC1CN(CCCn2cccn2)CCN1C1CCCCC1 (stereo unspecified),9,16,4205,16,7,3.2,-10
COc1ccccc1N(C)S(=O)(=O)c1ccc(C(=O)Nc2ccc(N3CCOCC3)cc2)cc1,6,4,3316,7,4,4.4,3
COc1ccc(Cn2cccc(NC(=O)Nc3ccc(F)cc3)c2=O)cc1,1,3,4287,6,-5,-7.9,0
CCCCC(=O)Nc1cccc(C(=O)NN=Cc2ccc(OC)cc2OC)c1,9,0,x,12,x,2.8,x
CCc1ccccc1NC(=O)COC(=O)c1cccs1,15,8,3995,5,-6,4.5,-18
COc1ccc(N2C(=O)CC(Sc3nc4ccccc4s3)C2=O)cc1 (stereo unspecified),6,-2,4550,9,-6,11,-17

# Remaining list, next part
SMILES,Mtb hypoxia rep,Mtb hypoxia rep growth,Autofluor counter,ugtP null kill,BJeLR lethal,Sa RN4220 lethal,PrP 5UTR inh
COC(=O)c1ccccc1NC(=O)CN(c1cc(OC)ccc1OC)S(C)(=O)=O,5,8,9700,-4,4,2.8,-10
C#CCOCCOCCOCCNc1nc(N2CCN(C(=O)Cn3cc(CCO)nn3)CC2)nc(N2CCN(C(=O)Cn3cc(CCO)nn3)CC2)n1,15,1,4004,6,x,4.6,-43
CCN(CC)S(=O)(=O)c1cc(C)c(C)cc1Br,x,x,3255,8,-1,14,-14
Cc1cccc(CSCc2nnc(N)s2)c1,x,x,2487,-3,1,-0.4,-6
COc1ccc(C(C)(C)NC(=O)C2CCC(=O)N(C3CCCC3)C2)cc1OC (stereo unspecified),3,5,5430,4,-5,3.4,-13
CCOc1cccc(-c2c(C(=O)NN=C(C)c3cccs3)nnn2-c2nonc2N)c1,1,0,x,-3,x,6.3,x
COc1ccc(S(=O)(=O)N2CCC(C(=O)NCc3cccc(OC)c3)CC2)cc1,x,x,4495,2,-7,1.9,-10
CCOn1c(=O)c(-c2ccc(Cl)cc2)[n+]([O-])c2ccccc21,5,1,4106,2,5,1.1,-14
CC(C)(C)NC(=O)/C(=C\C=C\c1ccccc1)NC(=O)c1ccc([N+](=O)[O-])cc1,-5,10,2314,-1,2,1.1,2
CCOc1ccccc1OCCCNCc1ccccc1,17,18,3523,9,-5,4.6,-47
Cn1ccc(C(=O)Nc2ccc(Br)cc2Br)n1,3,6,1950,0,1,-3.2,-106
Nc1c(C(=O)CSc2nnc(N3CCOCC3)n2-c2cccc(F)c2)c(=O)[nH]c(=O)n1C1CC1,2,5,5204,-4,x,-2.3,-4
COC(=O)CCCC1=CC2=C(c3ccccc3)C(=O)C(C)(OC(=O)C3CCCC3)C(=O)C2=CN1CCc1ccccn1 (stereo unspecified),6,2,2976,0,-8,3.6,-9
Cc1onc(-c2ccccc2)c1C(=O)N1CCN(C(=O)c2ccco2)CC1,-3,4,8771,-5,-4,-2.3,-9
Cc1ccc(CN2CCC(CNS(=O)(=O)c3ccc(-c4ccc(=O)[nH]n4)s3)CC2)cc1,-2,-7,6509,11,2,3.6,-18
COCc1nnc(NC(=O)c2ccc(S(=O)(=O)N(CC(C)C)CC(C)C)cc2)o1,8,4,2515,18,-2,25,-9
CCOC(=O)c1c(NC(=O)C2=C(C)NC(=S)NC2c2ccccc2C(F)(F)F)sc(C)c1C (stereo unspecified),4,-1,8403,-6,-30,2.6,-19
CN(C)Cc1cc(C(C)(C)C)cc(N2CCOCC2)c1O,16,8,3569,7,x,6.8,-6
